Compound activity as filed in PubChem.
VACV mCherry inh – qHTS for Stage-Specific Inhibitors of Vaccinia Orthopoxvirus: mCherry Reporter Primary qHTS; Potency, µM (doses to about 36.5 µM), inactives show at the highest dose activity change, negative = inhibition, actives largely listed as inhibitors; AID 720579, 2013; Vaccinia virus mCherry reporter infection, fluorescence; about a quarter of the inactives have no number; 310,000 tested, 0.63% active; active = well fitted inhibition curve with a large enough effect; inconclusive = small, poorly fitted or top-dose-only effect; inactive = no such curve, though single readings can be large or run the other way; tested in A549 cells; further: nearly all actives have a fitted effect of over 35% in size; inactives centre near -10
Vaccinia Venus – qHTS for Stage-Specific Inhibitors of Vaccinia Orthopoxvirus: Venus Reporter Primary qHTS; Vaccinia virus Venus reporter expression, fluorescence; Potency, µM (series often up to 36.5 µM), for inactives: at the highest dose activity change, negative = inhibition, actives largely listed as inhibitors; 330,000 tested, 0.46% active; active means well fitted inhibition curve with a large enough effect; inconclusive means small, poorly fitted or top-dose-only effect; inactive means no such curve, though single readings can be large or run the other way; tested in A549 cells; further: nearly all actives have a fitted effect of over 30% in size; inactives centre near -10
Active calls of the source: *; i = inactive; ? = inconclusive; · = no result given; [ ] = dose if it differs, or a comment. On the % scale 0 is the no-effect control and ±100 the full control effect; potency means the concentration at half of the fitted maximal effect.

Order of values – VACV mCherry inh, Vaccinia Venus
> COc1cc2c(cc1OC)CN(S(=O)(=O)c1cccc(F)c1)CC2
 : -16%, -7%
> COc1cccc(C2/C(=C(\O)c3ccc4c(c3)OCCO4)C(=O)C(=O)N2CC2CCCO2)c1 (stereo not drawn)
 : i, -22%
> CC(C)(C)Cc1c(-c2ccc(Cl)cc2)nc2c(Cl)cc(C(F)(F)F)cn12
 : 1%, -2%
> CN(Cc1ccccc1)S(=O)(=O)c1ccc(F)c(C(=O)Nc2cccc(Cl)c2Cl)c1
 : -9%, -8%
> Cc1ccc(-c2nn3c(C)nnc3c3ccccc23)cc1S(=O)(=O)N(C)CCO
 : ·, 6%
> Fc1cccc(F)c1CN1CCN(Cc2c(F)cccc2F)CC1
 : -8%, 4%
> Cc1ccc(C(=O)NNS(=O)(=O)c2ccccc2[N+](=O)[O-])cc1
 : ·, -8%
> COC(=O)C1=C(NC(=O)COc2ccc3ccccc3c2)CCS1
 : -14%, -2%
> COc1ccc(S(=O)(=O)Nc2nc3ccccc3s2)cc1OC
 : -14%, 1%
> CC(C)OCCCNc1ncnc2c1nc1n2CCCC1
 : -15%, -8%
> CC12C(=O)N(Cc3ccccc3)C(=O)C1C1C=CC2C1 (stereo not drawn)
 : -9%, -17%
> C=CCn1cc(C(=O)NCc2ccc(Cl)cc2)c(=O)c2cc(S(=O)(=O)N(CC)CC)ccc21
 : ?, ?
> Cc1ccc(CCNC(=O)c2c(C)oc3ncnc(N4CCOCC4)c23)cc1
 : i, -6%
> Cc1ccc(S(=O)(=O)N2CCC(=O)N(CCOC(=O)Nc3cc(C)cc(C)c3)CC2)cc1
 : -5%, -25%
> O=C1C2C3C=CC(C3)C2C(=O)N1CCCO (stereo not drawn)
 : -19%, -7%
> CN1CCN(NC(=O)c2ccc(S(=O)(=O)N3CCCCCC3)cc2)CC1
 : -13%, -7%
> O=Cc1cn(-c2ccc(F)cc2)c2ccccc12
 : -1%, -8%
> Cc1nc(-c2ccc(F)cc2)sc1CCNC(=O)c1ccccc1C(F)(F)F
 : -9%, -1%
> Cc1cc(C)cc(OCC(=O)OCC(=O)N(CC(C)C)c2c(N)n(Cc3ccccc3)c(=O)[nH]c2=O)c1
 : i, -8%
> CC(C)(C)C(=O)NC(=S)Nc1ccc(S(=O)(=O)Nc2nccs2)cc1
 : i, -11%
> COC(=O)CNC(=O)c1ccc(OC2CCN(C(=O)C3CC3)CC2)cc1
 : i, -5%
> COC(=O)COc1cccc(NC(=O)c2ccccc2)c1
 : i, -7%
> Cc1cccn2cc(-c3ccc(NC(=O)Cc4ccccc4)cc3)nc12
 : -22%, ?
> Cc1noc(C)c1CSc1nnc(-c2ccccc2)n1N
 : ·, -11%
> COCc1nnc(NS(=O)(=O)c2ccc(Cl)cc2)s1
 : i, -17%
> CCCCCCSc1ccc(-c2nc3ccc(Cl)cn3c2NCc2ccccc2)cc1
 : i, -3%
> CCN1C[C@@H]2[C@@H]3C(=O)N(C)C(=O)[C@@H]3[C@](C)(C1=O)N2C(=O)c1ccc(C(C)(C)C)cc1
 : i, -11%
> Cc1cc(NC(=O)c2ccc(Br)o2)cc(-c2nc3ccccc3o2)c1O
 : -9%, 2%
> Cc1cc(C)n2c(Nc3cccc(C(F)(F)F)c3)c(-c3ccsc3)nc2n1
 : -28%, ?
> COc1ccc(OC)c(C(C)NC(=O)c2ccc(Br)cc2)c1 (stereo not drawn)
 : 0%, -6%
> Cc1sc2ncnc(N3CCC(C(=O)NNC(=O)c4ccccc4Cl)CC3)c2c1C
 : -16%, -20%
> Cc1ccc(-c2nnn(CC(=O)N(C)C3CCCCC3)n2)o1
 : i, -25%
> O=C(CSc1cccc[n+]1[O-])NC(=O)c1ccc(OC(F)F)cc1
 : 9%, -7%
> CCOC(=O)c1ccc(N2C(=O)CC(N3CC(C)OC(C)C3)C2=O)cc1 (stereo not drawn)
 : ·, -20%
> O=C(c1ccc2c(c1)OCO2)c1cn(Cc2ccc(F)cc2)c2ccccc2c1=O
 : -13%, -14%
> COC(=O)[C@]12CCCCC=C1N(Cc1cccc3ccccc13)C(=O)[C@H](CC(=O)N1CCSCC1)C2
 : 8%, -15%
> Cc1nc2cc(NC(=O)NCCCO)ccc2o1
 : -11%, -12%
> COC(=O)/C=C1/N/C(=N\c2nc(C)cc(C)n2)N(c2cccc(C)c2)C1=O
 : -19%, -11%
> Cc1ccc(S(=O)(=O)N2CCN(C(=O)CN3CCCCC3)C2)cc1
 : -12%, -15%
> COc1ccc(N2CC(C)(C)C2=O)cc1
 : i, -2%
> COc1ccc(/C=N/NC(=O)C2(O)c3ccccc3-c3ccccc32)cc1
 : i, -6%
> O=C(COC(=O)Cc1ccsc1)Nc1ccc(Cl)cn1
 : -13%, -10%
> O=C(CCc1ccccc1)NCc1ccc2c(c1)CCN2C(=O)c1ccc(Cl)cc1
 : i, -7%
> COc1cccc(C(=O)NCC(=O)N/N=C/c2cccs2)c1
 : -7%, -6%
> FC(F)=C(F)CCSc1ncn[nH]1
 : 2%, -2%
> COc1ccccc1OCC(=O)NCc1n[nH]c(=O)c2ccccc12
 : -16%, -6%
> Cc1c(C(=O)c2ccccc2)c2ccccc2n1C
 : i, -20%
> CC1CCN(S(=O)(=O)c2ccc3c(c2)N(CC(=O)NCc2ccccc2Cl)C(=O)CO3)CC1
 : -21%, -6%
> Cc1cc(N=CC2=C(O)CC(C)(C)CC2=O)no1
 : -14%, -9%
> C/C(=C/C(=O)NCc1ccccc1)C(=O)O
 : -14%, -6%
> Cc1ccccc1NC(=O)NC1(C(=O)N2CCN(C)CC2)CCCCC1
 : -8%, 1%
> Cc1ccc(NC(=O)c2cccc(NC(=O)N3CCSc4ncccc43)c2)cc1F
 : -13%, -4%
> Cc1cc(Cl)nc(N)n1
 : -18%, -13%
> COc1ccc(-c2csc(NC(=O)c3c(C)noc3C)n2)cc1OC
 : -9%, -27%
> Cn1c(=O)c2c(nc(SCC(=O)Nc3ccccc3)n2Cc2ccccc2F)n(C)c1=O
 : -5%, 1%
> COc1cccc(C(=O)NCC(c2ccco2)N2CCOCC2)c1 (stereo not drawn)
 : i, -13%
> O=C(CSc1nnc(NC(=O)C2CC2)s1)Nc1ccccc1Cl
 : 4%, -3%
> COc1ccccc1CN(C)C[C@@H]1OCc2cnnn2CCCC(=O)N([C@H](C)CO)C[C@H]1C
 : -7%, 6%
> CCOC(=O)/C(=N\Nc1cc(Cl)ccc1Cl)N1CCN(CC)CC1
 : ?, -14%
> CN(C(=O)COC(=O)CCc1c[nH]c2ccccc12)C(c1ccccc1)c1ccccc1
 : -15%, -13%

Next structures follow:
Order of values – VACV mCherry inh, Vaccinia Venus
> Cc1cc(NC(=O)c2cc(-c3ccccc3C)nc3ccccc23)no1
 : -10%, -5%
> C[C@]12CCC3C(C[C@@H](O)[C@H]4C[C@@H](O)CC[C@]34C)C1CC[C@@H]2O (stereo partly drawn)
 : -11%, -4%
> CSc1ccc(/C=C(/Sc2nnc(-c3ccccc3)o2)C(=O)O)cc1
 : -27%, -17%
> Cc1nn(C)c(C(=O)NNC(=S)NCC(C)C)c1Cl
 : -24%, -6%
> COc1ccccc1CNC(=O)C(C)Sc1ccc(C)cc1 (stereo not drawn)
 : i, 1%
> O=C1OC(c2ccccc2)=C/C1=C/N1CCCCC1
 : -11%, 1%
> COCCOCC(O)CN1CCN(c2ccc(C)cc2)CC1 (stereo not drawn)
 : i, -18%
> COc1ccc(S(=O)(=O)N(C)CC(=O)N2CCCC2)cc1Cl
 : i, -2%
> COC(=O)c1ccc(NS(=O)(=O)c2ccc(SC)cc2)cc1
 : -5%, 0%
> CN(Cc1ccc2c(c1)CCCN2C)C(=O)[C@H]1O[C@@H](n2ccc(=O)[nH]c2=O)[C@H](O)[C@@H]1O
 : 13%, 10%
> O=C(Nc1cc(-c2nc3ccccc3o2)ccc1Cl)c1ccc(Br)o1
 : -28%, -15%
> COc1ccc(C)cc1S(=O)(=O)N(C)CC(=O)N1CCC(C)CC1
 : i, -2%
> COc1cccc(NC(=O)Nc2ccc3c(c2)nc(C)n3C)c1
 : -15%, -25%
> Cc1cc(/C=C2/C(=O)NC(=O)N(c3ccccc3)C2=O)c(C)n1-c1ccc(F)cc1
 : i, -4%
> COc1cc([N+](=O)[O-])ccc1NC(=O)CCCOc1cc(C)ccc1C
 : -16%, -11%
> COC(=O)[C@H](Cc1ccccc1)NC(=O)Cn1cnc2c(NCc3ccccc3)ncnc21
 : i, -1%
> COc1cccc(CN(C)C(=O)c2ccc(Oc3ccccc3)cc2)c1OC
 : -2%, -1%
> CCCCCn1c(CN2CCN(C)CC2)nc2c1c(=O)n(C)c(=O)n2C
 : 1%, 0%
> COc1cc(OC)cc(C(=O)NNC(=O)CCC(=O)c2cccs2)c1
 : -1%, -1%
> CCN(CC)CCCn1c(SCC(=O)Nc2cccc(F)c2)nnc1-c1ccoc1C
 : -14%, -8%
> C=CCn1c(CSCc2ccc(Cl)cc2)nnc1SCC(=O)NCc1ccccc1
 : -6%, -17%
> Cc1ccc(CCNS(=O)(=O)c2cc3c(cc2C)n(C)c(=O)c(=O)n3C)cc1
 : -21%, -12%
> O=C(NCCc1ccccc1)C1(c2cccs2)CCOCC1
 : -15%, -9%
> COc1cc2c(cc1OC)C(=O)C(c1ccc3c(c1)OCO3)CC2 (stereo not drawn)
 : -25%, -9%
> COc1ccc(CC(=O)OC(C)C(=O)NC2CCCCC2C)cc1 (stereo not drawn)
 : -1%, -7%
> CC(NC(=O)CCn1ccc2cc(S(=O)(=O)N3CCCC3)ccc21)c1ccccc1 (stereo not drawn)
 : 8%[7.34 µM], 0%[7.34 µM]
> COc1ccccc1C1(CC(=O)O)CCOC(C(C)C)C1 (stereo not drawn)
 : ·, -16%
> Cc1cc(C(F)(F)F)nn1Cc1ccc(C(=O)NCc2ccco2)o1
 : -20%, -5%
> CNC(=O)OCc1nc(SC2CCCCO2)n(C)c1COC(=O)NC (stereo not drawn)
 : 18%, -4%
> CC1CCN(CCCNC(=O)c2ccc(CS(=O)(=O)Cc3ccccc3F)o2)CC1
 : -17%, 0%
> Cc1ccc([N+](=O)[O-])cc1N=Cc1ccc(Br)s1
 : -12%, -7%
> CC(C)N(CC(=O)Nc1ccc(Cl)cc1C(F)(F)F)C(=O)CCl
 : ?, -24%
> CCN(CC(=O)Nc1ccc(NC(C)=O)cc1)C(=O)c1oc2ccccc2c1C
 : -15%, -14%
> CCOc1ccc(NS(=O)(=O)c2cc(OCC(N)=O)c(C)cc2Cl)cc1
 : -14%, -22%
> O=C(O)C1CCN(S(=O)(=O)c2ccc(Oc3ccccc3)cc2)CC1
 : -8%, -7%
> O=C(NCCc1cccs1)C1CC(c2cccc(F)c2)=NO1 (stereo not drawn)
 : i, -19%
> Cc1ccc(N2CC(NC(=O)c3cc4ccccc4o3)CC2=O)cc1C (stereo not drawn)
 : -2%[7.34 µM], -12%[7.34 µM]
> Nc1ncnc2c1ncn2[C@@H]1O[C@H](COP(=O)(O)OP(=O)(O)O)[C@@H](O)[C@H]1O
 : -10%, 5%
> CC1=C(C(=O)Nc2ccccc2)C(c2ccncc2)n2nc(SCc3ccccc3F)nc2N1 (stereo not drawn)
 : -11%, -7%
> CC(C)Nc1ncnc2c1ncn2[C@H]1CN(Cc2cccs2)C[C@@H](CO)O1
 : -6%, 2%

Next part (two carried over from the part before).
Order of values – VACV mCherry inh, Vaccinia Venus
> CC1=C(C(=O)Nc2ccccc2)C(c2ccncc2)n2nc(SCc3ccccc3F)nc2N1 (stereo not drawn)
 : -11%, -7%
> CC(C)Nc1ncnc2c1ncn2[C@H]1CN(Cc2cccs2)C[C@@H](CO)O1
 : -6%, 2%
> CCOc1cc(C(=O)N(C)Cc2cc3cc(OC)ccc3[nH]c2=O)cc(OCC)c1OCC
 : ·, -28%
> O=c1c2cc3c(cc2nc2sc(Nc4ccccc4)nn12)OCO3
 : -6%, 1%
> CCS(=O)(=O)N1CCCC(C(=O)NCc2cccnc2)C1 (stereo not drawn)
 : -8%, 4%
> CCO[C@@H]1OC(C(=O)N2CCCCCCC2)=C[C@H](c2csc3ccccc23)[C@H]1CCCO
 : -3%, -13%
> O=C(CSc1nnc(CNC(=O)c2ccc(F)cc2)o1)NCCc1ccccc1
 : i, -12%
> CCCS(=O)(=O)NCc1c(C)ncc2c1CCN(C(=O)/C=C/c1ccc(F)cc1F)C2
 : -6%, -8%
> CCCCCCCCN1C(=O)[C@H](CC(=O)N2CCCC2)C[C@@]2(C(=O)OC)CC(C)(C)CC=C12
 : ?, ?
> O=C(/C=C/c1ccc([N+](=O)[O-])cc1)NCCc1ccc(F)cc1
 : -24%, -19%
> COc1ccc(C2=CC3=C(Br)C(=O)C(C)(OC(=O)c4cccs4)C(=O)C3=CO2)cc1 (stereo not drawn)
 : -5%, -18%
> O=c1[nH]c(=O)n(C2CC(O)C(CO)O2)cc1I (stereo not drawn)
 : 5µM*, ?
> CCn1cc(S(=O)(=O)NCc2ccc3c(c2)OCO3)cn1
 : -12%, -5%
> CCc1cc2c(=O)c(-c3nc4ccccc4n3C)coc2c(CN2CCN(C)CC2)c1O
 : -10%, -4%
> COc1ccccc1NC(=O)N(C)C[C@@H]1OCc2ccccc2-c2c(n(C)c3ccccc23)C(=O)N([C@H](C)CO)C[C@@H]1C
 : ?, ?

Record cards (already shown):
CCn1cc(S(=O)(=O)NCc2ccc3c(c2)OCO3)cn1 is listed with VACV mCherry inh: -12%; Vaccinia Venus: -5%
COc1ccc(C2=CC3=C(Br)C(=O)C(C)(OC(=O)c4cccs4)C(=O)C3=CO2)cc1 (stereo not drawn) is listed with VACV mCherry inh: -5%; Vaccinia Venus: -18%
